Screens as filed in PubChem.
TAR Tat displ – HIV-1 TAR-Tat binding disruption | HIV-1 TAR RNA, Tat peptide displacement FRET; hits give high values | z-score (concentration not given with the values) | hit rate 0.6% among 100,000;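 further: score is relative to mean and SD of negative controls; some compounds called inactive have numbers as strong as hits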
CDC25B-CDK2 inh – human CDC25B-CDK2/CyclinA binding inhibition; hit rate 0.72% among 94,000; P30305+P24941; HTRF CDC25B-CDK2/CyclinA binding, anti-His/anti-Flag; hits give high values; z-score (test concentration not listed);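 further: score is relative to mean and SD of negative controls; strong numbers were not always called active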
Numbers without * were called inactive; / = no result given; & = joins results of further samples.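 How the source made its calls: active means z-score from 3 up in half or more of its runs; inactive means the rest.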

Start of the data: the first 6 compounds, to show the layout:
smiles	TAR Tat displ	CDC25B-CDK2 inh
O=C(Nc1c2c(nn1-c1ccc(Cl)cc1)CSC2)c1ccc(S(=O)(=O)N2CCCC2)cc1	/	0.5
Cc1[nH]nc(-c2ccc(S(=O)(=O)NCC(C)c3ccccc3)s2)c1C (centres undefined)	-1.31	/
c1ccc(CSc2nnc3c(n2)[nH]c2ccccc23)cc1	1.47	-0.92
Cn1ncc2c1ncn1nc(-c3ccccc3Cl)nc21	/	-1.12
CCCNc1nc(-c2cccc(Br)c2)cs1	0.92	-0.65
C=CCN(C(=O)c1c(C)oc2ncnc(N3CCOCC3)c12)c1ccccc1	1.43	/

Results (from the top)
smiles	TAR Tat displ	CDC25B-CDK2 inh
O=C(Nc1c2c(nn1-c1ccc(Cl)cc1)CSC2)c1ccc(S(=O)(=O)N2CCCC2)cc1	/	0.5
Cc1[nH]nc(-c2ccc(S(=O)(=O)NCC(C)c3ccccc3)s2)c1C (centres undefined)	-1.31	/
c1ccc(CSc2nnc3c(n2)[nH]c2ccccc23)cc1	1.47	-0.92
Cn1ncc2c1ncn1nc(-c3ccccc3Cl)nc21	/	-1.12
CCCNc1nc(-c2cccc(Br)c2)cs1	0.92	-0.65
C=CCN(C(=O)c1c(C)oc2ncnc(N3CCOCC3)c12)c1ccccc1	1.43	/
O=C(NCCCN1CCCCCC1)C1C2C=CC3(CN(Cc4cccs4)C(=O)C13)O2 (centres undefined)	/	0.01
CCCN(Cc1ccc(F)cc1)Cc1cc(=O)c2cc(Cl)ccc2[nH]1	-0.73	/
O=S(=O)(Cc1ccccc1)N1CCCC1c1ccco1 (centres undefined)	0.12	-3.42
Nc1nc2c3ccccc3nc(-c3ccccc3)n2n1	0.98	-0.13
COCCN1C(=O)C(=O)/C(=C(\O)c2ccc(C)cc2)C12C(=O)N(C)c1ccccc12 (centres undefined)	4.03	-0.17
CCN1C(=O)c2cc(C(=O)N3CCN(C)CC3)nn2CC1(C)C(=O)NC1CCCC1 (centres undefined)	1.34	/
CCN1C(=O)C(O)(CC(=O)c2c(C)n[nH]c2C)c2ccccc21 (centres undefined)	0.04	-0.57
Cc1occc1-c1nnc(SCC(=O)NC2CCCC2)o1	1.46	0.26
COc1ccc(S(=O)(=O)NC2CC2)cc1OC	-0.83	0.6
Cn1c(SCC(=O)N2CCCC2)nc2c([nH]c3ccccc32)c1=O	1.89	/
Nc1ccc(-n2ccnc2)cc1	/	-2.18
CCN(CC)S(=O)(=O)c1ccc2c(c1)NC(=O)CN2C	1.26	/
CCOC(=O)c1ccc(NC(=S)NCCCN2CCOCC2)cc1	/	-1.11
COc1ccc(C2CC(c3cccnc3)Nc3nnnn32)cc1 (centres undefined)	/	-2.78
Cn1ncc2c(Nc3ccc(Cl)cc3)nc(N3CCCCC3)nc21	0.4	/
COc1ccc(S(=O)(=O)[C@H]2CS(=O)(=O)C[C@@H]2NCCc2ccc(Cl)cc2)cc1	1.71	-0.23
CCOc1cc(C(=O)Nc2cc(C(=O)OC)ccc2C(=O)OC)cc(OCC)c1OCC	/	-2.94
COc1cccc2c(=O)c(NC(=O)N3CCC(CO)CC3)c[nH]c12	0.92	-0.4
Cc1c(C)c2ccc(OC(C)C(=O)O)c(C)c2oc1=O (centres undefined)	/	-0.99
CN(Cc1ccco1)C(=O)Cn1nc(Cc2cccnc2)c2ccccc2c1=O	0.96	-1.96
O=C(COCc1cc(-c2ccc3c(c2)OCO3)on1)Nc1cc(F)ccc1F	0.14	/
O=C(Nc1ccc(F)cc1)N1CCN(c2ccncc2)CC1	/	-0.91
COc1cc(NC(=O)c2noc3c2CC(C(C)(C)C)CC3)cc(OC)c1OC (centres undefined)	/	-0.43
CCCCCCC(=O)Nc1ccc2nc3c(=O)n(C4CCCCC4)c(=O)[nH]c3nc2c1	-0.55	-1.04
Cc1ccc(NC(=O)NC(C)c2c(-n3cccc3)sc(C)c2C)c(C)c1 (centres undefined)	0.73	-3.88
CCOC(=O)c1[nH]c(C)c(C(=O)NCCCN(C)C)c1C	/	-1.26
CC(C)(C)C(=O)NNC(=O)c1ccc(Oc2ccc(C3SCCS3)cc2)o1	/	-2.14
CN(C)S(=O)(=O)c1ccc2c(c1)nnn2CCCC(=O)Nc1nccs1	1.95	/
Cc1noc(C)c1CCNC(=O)CN(C)c1nnc(N2CCCC2=O)s1	2.12	/
Cc1ccc(CN2CCc3nc(N4CCN(c5ccccn5)CC4)ncc3C2)cc1C	0	/
CCCN1C(=O)C2(/C(=C(/O)c3ccc(C)c(F)c3)C(=O)C(=O)N2CCCOC)c2ccccc21 (centres undefined)	-0.72	0.46
CCCCCOC(=O)C1=C(C)Nc2ncnn2C1c1ccc(Br)cc1 (centres undefined)	0.94	-0.47
CCSc1ncc2c(=O)n(CC(=O)N(C)c3ccccc3)cnc2n1	1.17	/
Cc1oc2ncnc(N3CCCCC3)c2c1C(=O)NCCN1CC(C)CC(C)C1 (centres undefined)	1.04	/

Four structures from above, ordered by SMILES length, smallest number first:
smiles	TAR Tat displ	CDC25B-CDK2 inh
CCCCCOC(=O)C1=C(C)Nc2ncnn2C1c1ccc(Br)cc1 (centres undefined)	0.94	-0.47
COc1cccc2c(=O)c(NC(=O)N3CCC(CO)CC3)c[nH]c12	0.92	-0.4
COc1cc(NC(=O)c2noc3c2CC(C(C)(C)C)CC3)cc(OC)c1OC (centres undefined)	/	-0.43
CCOc1cc(C(=O)Nc2cc(C(=O)OC)ccc2C(=O)OC)cc(OCC)c1OCC	/	-2.94

Copied from the list:
CCOC(=O)c1[nH]c(C)c(C(=O)NCCCN(C)C)c1C in CDC25B-CDK2 inh is listed with -1.26
CCOc1cc(C(=O)Nc2cc(C(=O)OC)ccc2C(=O)OC)cc(OCC)c1OCC in CDC25B-CDK2 inh is listed with -2.94
CN(C)S(=O)(=O)c1ccc2c(c1)nnn2CCCC(=O)Nc1nccs1 in TAR Tat displ is listed with 1.95

(more compounds)
smiles	TAR Tat displ	CDC25B-CDK2 inh
CC(=O)c1ccc(N2C(=O)c3ccccc3C2=O)cc1	/	0.26
Cc1ccc(Cl)cc1NS(=O)(=O)c1ccc(N2CCCCS2(=O)=O)cc1	1.13	/
CNC(=O)C1(c2ccc(NC(=O)C3CC3)cc2)CCCCC1	0.89	/
COC(=O)c1ccccc1-c1c2ccc(=O)cc-2oc2cc(O)ccc12	/	-0.73
Cc1ccc(CSc2nnc(-n3c(=O)c(C#N)cc4c(=O)n5ccccc5nc43)s2)cc1	1.74	-0.04
COc1ccc(/C=N/N2CCC(=O)Nc3ccccc32)c(OC)c1	/	-0.45
N#Cc1c(N)nc2c(c1-c1ccncc1)CCCCC2	/	-0.35
COCCCNC(=O)c1cc2n(n1)CC(C)(C(=O)NC1CCCC1)N(C)C2=O (centres undefined)	0.17	/
CCOC(=O)c1c(C)[nH]c(C)c1S(=O)(=O)N(CC(C)C)CC(C)C	1.06	/
Cc1cc(NCCOCCO)n2ncc(-c3ccc(F)cc3)c2n1	1.13	-2.42
CSc1nc2sc3c(c2c2nncn12)CC(C(C)C)OC3 (centres undefined)	0.25	0.58
Cc1ccccc1-c1n[nH]n2c1nc(=O)c1cc(Cl)ccc12	0.21	-1.36
Cc1cc(C)cc(-n2ccnc(SCC(=O)NC3CCCC3)c2=O)c1	0.54	/
Cc1c(-c2ccc(Cl)cc2)nc(N)c(C#N)c1-c1ccco1	-4.41	-0.21
CCOc1ccc(S(=O)(=O)[C@H]2CS(=O)(=O)C[C@@H]2NCc2ccccc2)cc1	-1.77	-1.79
COCCCNC(=O)CSc1ccsc1[N+](=O)[O-]	-0.85	-1.83
CC(C)NC(=O)c1cn2c3c(ccc(Cl)c3c1=O)OCC2	0.52	/
NNC(=O)CSc1nnc(-c2ccccc2)n1-c1ccccc1	/	-1.56
CC(=O)c1ccc(Nc2nc(-c3cc4cc(Cl)ccc4oc3=O)cs2)cc1	/	1.86
CCOC(=O)c1c(C)[nH]c(NC(=O)Nc2ccc(OCC)cc2)c1C	1.24	-1.7
CC1CCCN(CC2CCN(S(=O)(=O)c3cccc4nsnc34)CC2)C1 (centres undefined)	0.84	/
CCC(=O)Oc1ccc2c(=O)c(Oc3ccccc3Br)coc2c1	-0.4	1.78
COc1ccc(OCCSc2nc3ccc(Br)cc3[nH]2)cc1	0.98	0.39
Cc1ccc2c(=O)cc(C(=O)Nc3nnc(C(C)C)s3)oc2c1C	2.42	-2
CC1(CC(=O)c2ccc(Br)cc2)C(=O)OC(c2ccccc2)C(C)(C)C1=O (centres undefined)	-0.45	0.54&1.19
Clc1cccc2c(NCCCN3CCOCC3)cnnc12	0.76	/
OC(CN1CCN(c2ccccc2)CC1)c1ccc2cc[nH]c2c1 (centres undefined)	-1.39	-0.85
CN(CCCNS(=O)(=O)c1ccc(-c2ccc(=O)[nH]n2)s1)C1CCCCC1	0.45	/
Cc1[nH]c2ccccc2c1Cc1n[nH]c(=S)o1	1.58	1.87
CCN(CC)S(=O)(=O)c1cc(-c2ccc(=O)n(CC(=O)OC(C)C)n2)ccc1C	0.37	1.64
CC(C)(CC(=O)O)CC(=O)Nc1ccccc1Oc1ccccc1	/	-0.59
O=c1ccc(-c2ccc(S(=O)(=O)NCc3ccccc3Cl)s2)n[nH]1	0.34	/
CCOC(=O)C1CCCN(C(=O)C(CC)n2nc(C)n3c(cc4occc43)c2=O)C1 (centres undefined)	-0.7	-1.95
CSc1ccc(-c2nc3sccn3c2Nc2ccccc2)cc1	2.18	-2.45
Cc1ccc(OCc2nc(C#N)c(N3CCC(C)CC3)o2)cc1	0.34	0.07
CC(=O)Oc1ccc(C2C(C(=O)OC(C)C)=C(C)N=C3SCCC(=O)N32)cc1 (centres undefined)	0.32	-1.23
COc1ccccc1-n1c(C)ccc1C	0.6	-2.68
CCOC(=O)C1=C(C)N=C2SC(C)C(=O)N2C1c1ccccc1Cl (centres undefined)	-0.06	-0.29
Cn1c(=O)n(CC(=O)N2CCCC2)c(=O)c2cc(S(=O)(=O)N3CCc4ccccc4C3)ccc21	2.29	/
O=C(CSc1nc(-c2ccco2)cc(C(F)(F)F)n1)N1CCCc2ccccc21	0.88	-0.59
Cc1c(C(=O)N2CCC(C)CC2)oc2ccc3c(c12)C(O)CC(C)(C)O3 (centres undefined)	2.4	-0.89
N#CC1=C(N)OC2=C(C(=O)CCC2)C1c1cccc(O)c1 (centres undefined)	/	-0.34
COc1cccc(C2Oc3c(OC)cccc3C3CC(c4cc(OC)ccc4O)=NN32)c1 (centres undefined)	-2.58	0.39
COc1cccc2c(C)nc(Nc3nc4ccccc4c(=O)[nH]3)nc12	-0.55	-0.68
O=C(C1CCCN(c2ncnc3c2nc2n3CCCCC2)C1)N(Cc1ccco1)C1CCCCC1 (centres undefined)	1.18	/
COc1ccc(C2=CC(c3sccc3C)n3nnnc3N2)cc1 (centres undefined)	/	-1.21
O=C(c1cccc2c1OCCCO2)N(Cc1ccccn1)Cc1ccccn1	/	-1.3
CC(C)COc1ccc(C(=O)N2N=C(C3CC3)CC2(O)C(F)(F)F)cc1 (centres undefined)	/	-0.6
CC1(C)CN(C(=S)Nc2ccc(F)cc2F)C1=O	/	-1.01
Fc1cccc(-c2nnc(Cc3ccc(Cl)cc3)o2)c1	1.29	-0.03
CCCc1nnc(NC(=O)Cc2coc3ccc(C)cc23)s1	2.81	-2.65
O=C(CN1C(=O)CCSc2ccccc21)N1CCc2ccccc21	-0.7	-2.37
CC1CCCN(S(=O)(=O)c2ccc3c(c2)C(C)(C)C(=O)N3C)C1 (centres undefined)	0.96	/
N#CC1=C(c2ccc(Cl)cc2)Sc2ccccc2NC1=O	3.24	-1.11
CCCn1nc(-n2cnnc2)c(NS(=O)(=O)c2ccc(C3CCCCC3)cc2)c1C	0.2	-1.31
CC(C)OCCCNC(=O)C1CCCN(S(=O)(=O)N2CCOCC2)C1 (centres undefined)	-1.81	/
COc1ccc(-c2n[nH]c(=O)c3noc(C)c23)cc1	1.2	/
O=S(=O)(c1cccs1)N1CCN(c2cc(C(F)(F)F)nc3ccccc23)CC1	/	-1.76
Cc1cccc(N2C(=O)N(CC(=O)C(C)(C)C)c3ccccc3S2(=O)=O)c1C	1.77	/
CC(C)Cn1c(=O)c2sccc2n2c(CCCC(=O)NC3CCC(C)CC3)nnc12 (centres undefined)	0.82	/

Next records follow.
smiles	TAR Tat displ	CDC25B-CDK2 inh
N#CC1=C(N)Oc2c(oc(CO)cc2=O)C1c1ccccc1F (centres undefined)	/	-0.92
CCc1ccc2oc(C(=O)Nc3sc4c(c3C(=O)NCC3CCCO3)CCCC4)cc(=O)c2c1 (centres undefined)	-0.33	-1.6
Nc1nnc(SCc2cc(=O)n3ccsc3n2)s1	0.47	-2.27
Cn1c(=O)n(CC(=O)N2CCCC2)c(=O)c2cc(S(=O)(=O)NCC3CCCO3)ccc21 (centres undefined)	2.06	/
O=c1[nH]c2cc3c(cc2c(=O)n1Cc1nc(-c2ccc(Br)cc2)no1)OCO3	1.18	/
CCC(Cn1nnc2ccccc2c1=O)NC(=O)Nc1ccccc1F (centres undefined)	2.06	-0.2
NC(=O)CCCc1c[nH]c2ccccc12	/	-1.23
O=c1cc2nc(-c3ccco3)nc(SCc3ccc(Br)cc3)n2[nH]1	2.72	/
Cc1nc2ccccc2n1CC(O)COc1ccc(C2C=CCC2)cc1 (centres undefined)	0.92	-0.96
Cc1cccn2c(NC3CCCCC3)c(-c3cccnc3)nc12	/	-0.82
Cc1cc(N(C)C)n2nc(C(F)(F)F)c(-c3ccc(F)cc3)c2n1	0.21	0.91
CCOC(=O)C1CCCN(c2c(NCCC3=CCCCC3)c(=O)c2=O)C1 (centres undefined)	1.26	-1.52
CCOc1ccc(NS(=O)(=O)c2ccc3c(c2)CC(C)N3C(=O)C2CCC2)cc1 (centres undefined)	0.1	/
